Rango-impB inh – qHTS Assay for Inhibitors of Rango (Ran-regulated importin-beta cargo) - Importin beta complex formation | Rango CFP/YFP FRET sensor + importin beta, 45 min | Potency, µM (top dose mostly 92.2 µM), without a hit: at the highest dose inhibition of complex formation | Importin subunit beta-1 (Homo sapiens), Q14974 | 340,000 tested, 0.031% active | AID 540263, 2011; active = rising FRET ratio curve, often small or poorly fitted; inconclusive = mostly compound fluorescence or quenching in the first reads; inactive = flat curves in all reads;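 further: potency means the concentration at half of the fitted maximal effect; 0% = DMSO wells and 100% = buffer wells lacking importin beta; nearly all actives have a fitted effect of over 15% in size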
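FRET biosensor (snurportin 1 IBB flanked by EYFP and cerulean), 50 nM, with compound 5 min, then 0.125 microM importin beta in PBS, 1 mM DTT, 0.02% Tween-20, 0.1% BSA. CFP/YFP ratio read after 45 min at room temperature; pre-read flags interference.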
Rango release inh – qHTS Assay for Inhibitors of RanGTP induced Rango (Ran-regulated importin-beta cargo) - Importin beta complex dissociation; Potency, µM (highest dose often 46.1 µM), for the others: at the top dose activity change, negative = inhibition; AID 540253, 2011; Snurportin-1 (Homo sapiens) + GTP-binding nuclear protein Ran (Homo sapiens) + Importin …; Biochemical FRET Rango-importin beta, RanGTP-induced dissociation; 340,000 tested, 0.071% active; active means falling FRET ratio curve, often poorly fitted, with flat reads before Ran was added; inconclusive means other falling curves, or compound fluorescence or quenching; inactive means flat or rising ratio curve;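 further: potency means the concentration at half of the fitted maximal effect; % of control where 0% means no effect; nearly all actives have a fitted effect of over 45% in size; -100% = wells without RanGTP and RCC1; the record marks most hits as doubtful in a second field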
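Quantitative HTS using a FRET biosensor: 0.1 uM Rango, 0.25 uM importin beta, 0.6 uM Ran, 2 mM GTP, 0.2 uM RCC1 final, PBS with DTT, Tween-20 and BSA. Post-read taken 45 min after Ran addition.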
GLA inh pH 4.5 – qHTS Assay for Inhibitors of Human alpha-Galactosidase at pH 4.5 | 230,000 tested, under 10 active | purified enzyme, 4-MU-alpha-Gal fluorescence, pH 4.5 | activity change, negative = inhibition, % at 105 µM | AID 1467, 2008 | Alpha-galactosidase A (Homo sapiens), P06280; inconclusive = small, poorly fitted or top-dose-only inhibition, or a rising curve; inactive = flat fitted curve, though single readings scatter; no compound was filed as active;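 further: 0% = full activity with enzyme and -100% = basal without enzyme; dose as in the result columns while the protocol names 77 µM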
Target sequence (P06280 whole entry, looked up): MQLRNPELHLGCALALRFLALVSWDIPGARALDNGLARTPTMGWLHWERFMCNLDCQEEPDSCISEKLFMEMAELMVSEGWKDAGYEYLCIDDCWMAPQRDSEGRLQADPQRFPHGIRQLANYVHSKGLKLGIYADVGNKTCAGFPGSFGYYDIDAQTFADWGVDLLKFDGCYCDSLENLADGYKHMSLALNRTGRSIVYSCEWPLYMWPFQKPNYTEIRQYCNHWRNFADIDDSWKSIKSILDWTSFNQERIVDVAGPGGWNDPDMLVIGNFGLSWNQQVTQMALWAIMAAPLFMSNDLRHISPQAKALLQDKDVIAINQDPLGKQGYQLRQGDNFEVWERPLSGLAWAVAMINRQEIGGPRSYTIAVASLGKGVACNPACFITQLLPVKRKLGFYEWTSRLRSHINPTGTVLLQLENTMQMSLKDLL
miR-21 FLuc – qHTS Assay for Modulators of miRNAs and/orActivators of miR-21 | Potency, µM (top dose mostly 38.3 µM), for inactives: at the highest dose reporter change, positive = more light | 340,000 tested, under 10 active | HeLa miR-21 FLuc reporter, luciferase, 48 h; active = well fitted rising curve with a large enough effect; inconclusive = small, poorly fitted or top-dose-only effect; inactive = no such curve, though single readings can be large or run the other way;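 further: % of control where 0% means no effect; miR-21 action dims this reporter so a rising signal means less miR-21 action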
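HeLa cells endogenously expressing miR-21, stably carrying CMV-driven firefly luciferase with a downstream miR-21 binding site, 2000 cells/well. Titrations up to approximately 40 uM, 48 hours; luciferase luminescence read.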
Numbers without * were called inactive; ? = inconclusive; · = not tested or not shown; & = joins results of further samples.

SMILES | Rango-impB inh | Rango release inh | GLA inh pH 4.5 | miR-21 FLuc
CCN(CCO)C(=O)CC1C(=O)NCCN1Cc1c(F)cccc1Cl (centres undefined) | -2.1% | -9% | -4 | 1%
O=C(C(=O)N1CCCCC1)c1cn(CC(=O)N2CCCCCC2)c2ccccc12 | -0.6% | -8% | · | -2%
C=CCNC(=O)c1c(Cl)cccc1Cl | 1.4% | -2% | -1 | -24%
COc1ccc(OC)c(NC(=O)CC2(CC(=O)O)CCCC2)c1 | -2.1% | -7% | · | 1%
CCCCn1c(N)c(N(CC(C)C)C(=O)c2oc3ccc(OCC)cc3c2C)c(=O)[nH]c1=O | -3.4% | 0% | · | -8%
Cc1ccc(NC(=O)CN(C)C(=O)Cn2cc(C(F)(F)F)cc(Cl)c2=O)cc1 | 3.3% | 24% | 2 | -7%
COc1ccc(C2C(=O)c3ccccc3C2=Nc2ccc(Br)cc2)cc1 (centres undefined) | 1.6% | -10% | -2 | 4%
Cc1nnc(-c2cnn(C)c2N)n1Cc1ccc(Cl)cc1 | -0.5% | -14% | 7 | -9%
COC(=O)CCC(=O)OC1(C)C(=O)C2=CN(CCCOC(C)C)C(c3ccc(OC)cc3)=CC2=C(Br)C1=O (centres undefined) | ? | ? | -1 | 1%
N#C/C(=C(/O)CN1CCCC1)c1nc(-c2ccccc2)cs1 | 0.4% | -5% | -3 | -48%
Cc1ccc(S(=O)(=O)N2[C@@H](c3ccc(F)cc3)C(C(=O)O)=C[C@H]2CC2CCCC2)cc1 | -3.5% | 18% | · | ·
CCc1ccc(-c2cc(C(=O)N/N=C/c3c[nH]c4ccccc34)[nH]n2)cc1 | -0.2% | -4% | -10 | 8%
N#CCSc1nc(-c2ccccc2)nc2ccc(F)cc12 | -4.2% | ? | · | 0%
CC(C)(C)Nc1nc(NC(C)(C)C)nc(-n2ccnc2)n1 | 1.0% | -2% | -6 | -7%
Cc1cccc(NC(=O)CSc2nnc(-c3cc(C)n(-c4ccccc4)c3C)o2)c1C | ? | -9% | -24 | -26%
CCn1c2ccccc2c2cc(NC(=O)COC(=O)c3cccc(S(=O)(=O)NC)c3)ccc21 | -2.5% | 8% | 0 | -29%
CCOC(=O)c1c2n(c3ccc(O)cc13)CCC2 | ? | 6% | 4 | -18%
COC(=O)CNC(=O)c1ccc2c(c1)S(=O)(=O)c1ccccc1C2=O | -0.3% | -3% | -11 | -19%
COc1ccc(O)c(/C=N/n2c(-c3ccco3)csc2=Nc2cccnc2)c1 | 1.4% | -10% | 3 | -18%
COc1ccc(N2CCN(C(=O)COCc3cc(-c4ccc5c(c4)OCO5)on3)CC2)cc1 | 6.8% | ? | · | -1%&-2%
CCCN(CCC)CC(O)CN1C(=O)NC(C)(C)C1=O (centres undefined) | 4.1% | 2% | -6 | -1%
CCCCn1nc(C(=O)N(C)C2CCCCC2)c2ccccc2c1=O | -2.5% | -5% | · | ·
O=C(N/N=C/c1cc2c(cc1Br)OCO2)c1c[nH]c2ccccc12 | -1.7% | 12% | -15 | -37%
C=C1CCC[C@]2(C)C[C@H]3OC(=O)C(CN[C@@H](C)c4ccccc4)[C@H]3CC12 (some centres undefined) | 0.4% | 1% | · | 1%
COCO/C=C(\NC(C)=O)c1ccccc1 | 1.3% | 4% | · | ·
COc1ccc(CCNC(=O)Cc2ccc(NC3=NC4CS(=O)(=O)CC4S3)cc2)c(OC)c1 (centres undefined) | 1.4% | 19% | · | 0%
CCC(=O)c1ccc(OCC(=O)NNC(=O)c2cc(C)oc2C)cc1 | 0.4% | 10% | · | ·
c1ccc2[nH]c(CN3CCN(c4ncnc5c4oc4ccccc45)CC3)nc2c1 | -0.8% | 11% | -4 | -2%
NC(=O)C1CC(=O)N(c2ccc(OCc3ccc(Cl)cc3)cc2)C1 (centres undefined) | 0.1% | -1% | 1 | -57%
CC(C(=O)N1CCc2ccccc21)N1CCN(S(=O)(=O)c2ccc(C(F)(F)F)cc2)CC1 (centres undefined) | -1.0% | -2% | · | ·
N#CCc1ccc(NS(=O)(=O)c2ccc(C3CCCCC3)cc2)cc1 | 1.6% | -1% | 6 | -1%
Cn1c(=O)c2[nH]c(-c3ccccc3Cl)c(O)c2n(C)c1=O | ? | ? | 5 | -3%
CC(=O)Nc1ccc2c(c1)nc(CCN1CCC(C)CC1)n2C | -7.3% | 16% | -8 | -3%
Cc1ccc(CSCC(=O)Nc2ccccc2C(=O)O)cc1 | 0.6% | 9% | · | 12%
O=C(CCC1CCCC1)NNC(=O)c1ccc(F)cc1 | -2.6% | -5% | · | ·
O=C(NCCS(=O)(=O)N1CCN(Cc2ccccc2)CC1)c1ccc(F)cc1 | 3.3% | 4% | · | ·
CCCCn1c(N)c(N(CCC(C)C)C(=O)c2c(C)noc2C)c(=O)[nH]c1=O | -2.4% | -24% | · | ·
COc1ccc2c(CC(=O)Nc3nccs3)coc2c1 | ? | -15% | 7 | -42%
Cc1nc(NS(=O)(=O)c2ccccc2)sc1C(=O)NN | ? | -9% | -1 | 1%
COc1ccc(C(=O)NCCCNC(=O)c2ccc(C)nc2)cc1 | 0.2% | -6% | · | 3%

Single records (already shown). Order of screens: Rango-impB inh	Rango release inh	GLA inh pH 4.5	miR-21 FLuc
Entry for `N#C/C(=C(/O)CN1CCCC1)c1nc(-c2ccccc2)cs1` = 0.4%	-5%	-3	-48%
Entry for `Cc1ccc(CSCC(=O)Nc2ccccc2C(=O)O)cc1` = 0.6%	9%	·	12%
Entry for `Cc1nnc(-c2cnn(C)c2N)n1Cc1ccc(Cl)cc1` = -0.5%	-14%	7	-9%
Entry for `Cc1ccc(NC(=O)CN(C)C(=O)Cn2cc(C(F)(F)F)cc(Cl)c2=O)cc1` = 3.3%	24%	2	-7%
Entry for `CCN(CCO)C(=O)CC1C(=O)NCCN1Cc1c(F)cccc1Cl` (centres undefined) = -2.1%	-9%	-4	1%

(further entries)
SMILES | Rango-impB inh | Rango release inh | GLA inh pH 4.5 | miR-21 FLuc
COc1ccc(OC)c(S(=O)(=O)N2CCc3ccccc32)c1 | -0.5% | 2% | -6 | -2%
CCN(C[C@H]1N[C@@](CC)(C(=O)OC)[C@H]2C(=O)N(Cc3ccccc3)C(=O)[C@@H]12)S(=O)(=O)c1ccc(C(F)(F)F)cc1 | -4.6% | 8% | · | ·
N/C(=N\OC(=O)Cc1cccs1)c1ccccc1 | -1.6% | 12% | 9 | -39%
O=C(OCC1OC2C(Oc3nc(=O)ccn32)C1O)c1ccccc1 (centres undefined) | -0.8% | -1% | 0 | 4%
O=C1OCCN1S(=O)(=O)Nc1ccccc1 | 1.2% | -11% | · | -2%
O=C(NNC(=O)c1ccco1)c1cccc(Br)c1 | 0.5% | 16% | · | 9%
Cc1ccc(NC(=O)c2ccc(Br)o2)c([N+](=O)[O-])c1 | 3.3% | -3% | · | ·
O=C(NCc1ccc(Cl)cc1)C1CCC(CNc2c(N3CCOCC3)c(=O)c2=O)CC1 (centres undefined) | -2.6% | 21% | -7 | -6%
CC(=O)OCC1OC(OCc2cn(C[C@H]3CC[C@@H]([C@@H]4CC[C@H](Cn5cc(COC6OC(COC(C)=O)C(OC(C)=O)C(OC(C)=O)C6OC(C)=O)nn5)O4)O3)nn2)C(OC(C)=O)C(OC(C)=O)C1OC(C)=O (some centres undefined) | 0.5% | -11% | · | -3%
COc1ccc(S(=O)(=O)N2CCCC(C(=O)NCc3cccnc3)C2)cc1 (centres undefined) | 0.4% | -3% | · | 11%
Cc1ccc(Cl)cc1N1CCN(C(=O)c2ccc3nc[nH]c3c2)CC1 | -0.2% | 10% | -5 | 27%
C#Cc1cccc(N2C(=O)C3C4C=CC(C3C2=O)C2C(=O)N(c3cccc(C#C)c3)C(=O)C42)c1 (centres undefined) | -3.2% | 3% | · | ·
COc1ccccc1NC(=O)COc1ccc2ccccc2c1 | 2.5% | 17% | · | -27%
O=C(Nc1cccc(-c2nc3ccccc3s2)c1)c1ccc2c(c1)OCO2 | -0.4% | 13% | 6 | -16%
Cc1nnc(SCc2nnc(-c3cccs3)o2)s1 | -2.6% | ? | 4 | -15%
Cc1cc2cc(C)c(NCCNC(=O)c3ccccc3F)nc2cc1C | 0.6% | 15% | 0 | -13%
CCOCCCNC(=S)Nc1cc(C)cc(C)c1 | -0.2% | 2% | 18 | -2%
N#Cc1ccc(C(=O)OCC(=O)N2CCOCC2)cc1 | -1.7% | 0% | · | 8%
CC(=O)OCC1=C(C(=O)O)N2C(=O)C(NC(=O)CCn3nc(C)c(Cl)c3C)C2SC1 (centres undefined) | -0.1% | -13% | 3 | -5%
CO/N=C(/COc1ccc(F)cc1)c1ccc(OC)cc1 | -0.5% | 3% | · | -8%
Cn1c(CN2CCCCC2)nc2cc([N+](=O)[O-])ccc21 | 2.4% | 1% | -1 | -3%
NS(=O)(=O)c1cccc(NC(=O)CCSc2ccc(Cl)cc2)c1 | -1.2% | ? | 3 | -7%
CCOc1cccc(-c2nnc3sc(COc4ccc(C)cc4)nn23)c1 | -2.5% | 8% | 4 | -4%
CC(=O)Oc1ccc2oc(/C=C/N(C)C)c([N+](=O)[O-])c2c1 | 9.0% | 2% | 5 | -33%
NC(=O)CSC1=Nc2ccccc2C2=NC(c3ccccc3)C(=O)N12 (centres undefined) | -2.6% | 0% | 6 | 0%
O=C(NNS(=O)(=O)c1ccc(F)cc1)c1ccc([N+](=O)[O-])cc1Cl | -2.3% | 6% | · | 1%
CC1(C)Cc2c(cnn2-c2cccc(F)c2)C(NC(=O)CCc2cnccn2)C1 (centres undefined) | -0.6% | 1% | · | -11%
CCN(CC)CCCNC(=O)c1cn(C)c(=O)c2c1c1ccccc1n2C | -2.7% | 5% | · | -2%
CCOc1ccc(NC(=O)Cc2c(C(=O)O)n(C)c3ccccc23)cc1 | -1.9% | 2% | · | -11%
CC(=NCCc1c(C)[nH]c2ccc(OCc3ccccc3)cc12)C1=C(O)CC(c2ccccc2)CC1=O (centres undefined) | 2.3% | 3% | 11 | -3%
O=C(CNC(=O)c1ccc(Br)o1)NNC(=O)c1cccc(Cl)c1 | -1.3% | -3% | · | ·
NC(=O)c1cnccn1 | -3.0% | -8% | -12&5&4 | -6%
CN(C(=O)c1cncc(Br)c1)c1c(N)n(Cc2ccccc2)c(=O)[nH]c1=O | 9.8% | -1% | · | ·
COc1ccc(C(=O)NCCS(=O)(=O)NCc2ccccc2OC)cc1 | 2.0% | 37% | · | ·
Nc1[nH]c(=O)ncc1F | -3.8% | -3% | 4&0&4 | -6%&1%
CCOC(=O)NC(Nc1sc2c(c1C(=O)OC)CCN(C)C2)(C(F)(F)F)C(F)(F)F | ? | ? | 3 | 2%
O=C(COc1ccccc1[N+](=O)[O-])N1CCN(C(=O)c2ccco2)CC1 | 1.1% | 0% | · | -3%
COC(=O)c1ccc(Oc2c(C(F)(F)F)oc3c(CN4CCN(C)CC4)c(O)ccc3c2=O)cc1 | ? | -27% | -10 | -10%
O=C(CCCC(=O)N(CC(=O)NC1CCCC1)Cc1ccccc1)Nc1ccccn1 | 6.3% | -10% | 12 | 3%
COC(=O)c1sccc1NC(=O)CN(C)NS(=O)(=O)c1ccc([N+](=O)[O-])cc1 | 4.5% | 11% | 1 | -7%
O=C(CSc1nncc(=O)[nH]1)Nc1cccc([N+](=O)[O-])c1 | 0.1% | -4% | · | 13%
Cc1cccc(NC(=O)C2CCCC2)c1 | ? | -3% | 4 | -11%
COc1ccc(Cn2nnnc2C(c2cc3ccc(OC)cc3[nH]c2=O)N2CCCCCC2)cc1 (centres undefined) | ? | ? | -2 | -2%
O=C(NN=C1CCCCCC1)c1cccs1 | -1.0% | 1% | · | -55%

Source: PubChem BioAssay

Only part of the results is shown; the hit share may differ from the screen's.
